High-throughput results deposited in PubChem BioAssay by several laboratories.
PKD1 kinase inh: inhibitors of human PKD1 kinase; PKD1 kinase fluorescence polarization assay; inhibition, %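 (about 10 µM by stock and volumes)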; actives 0.056% (n = 200,000); AID 797;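 active means inhibition of 50% or more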;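 further: controls were vehicle for no effect and a reference inhibitor for full effect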
HSV augment: HSV replication enhancement | HSV replication augmentation in cells, fold increase | maximum fold increase | actives 0.005% (n = 220,000);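 active means peak rise of 1.5-fold or more in the series; tested in PC3 cells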;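 further: first round at 10 µM; read as green reporter fluorescence; hits show the peak of a series up to 25 µM; 1 = signal of infected wells without compound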
RGS16-Gao: regulators of human RGS16-Galphao interaction; O15492+P09471; bead-based flow cytometry RGS16-Galphao binding, fluorescence; actives lie on both sides; binding response (% of control), % at 10 µM; actives 0.38% (n = 220,000); AID 1441;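 active means below 25% or above 175%, edge rows of some plates excepted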;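 further: Galphao activated by GDP with aluminum fluoride before binding; 100% = wells without compound and 0% = beads without RGS; some results beyond the cut were filed as inactive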
Target sequence (O15492 whole entry, looked up): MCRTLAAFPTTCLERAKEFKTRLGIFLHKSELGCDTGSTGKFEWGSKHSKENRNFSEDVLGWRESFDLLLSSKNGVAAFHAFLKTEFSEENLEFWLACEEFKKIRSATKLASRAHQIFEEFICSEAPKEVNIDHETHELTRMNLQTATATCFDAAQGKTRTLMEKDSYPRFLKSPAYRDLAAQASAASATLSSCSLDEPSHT
Target sequence (P09471 whole entry, looked up): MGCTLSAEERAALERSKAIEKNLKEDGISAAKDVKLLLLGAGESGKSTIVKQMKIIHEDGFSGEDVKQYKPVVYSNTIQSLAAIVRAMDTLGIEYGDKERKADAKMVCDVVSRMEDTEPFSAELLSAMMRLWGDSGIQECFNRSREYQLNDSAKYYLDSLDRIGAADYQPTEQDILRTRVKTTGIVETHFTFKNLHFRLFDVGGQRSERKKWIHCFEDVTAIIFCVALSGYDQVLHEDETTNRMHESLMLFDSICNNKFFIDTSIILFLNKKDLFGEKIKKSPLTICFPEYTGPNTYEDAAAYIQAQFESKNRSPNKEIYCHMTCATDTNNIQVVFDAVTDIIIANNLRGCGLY
GALR2 agonist: GALR2 (human) receptor agonism. O43603. GALR2-expressing cells, agonist activation read-out. activation, %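 (tested at 5 µM)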. actives 0.48% (n = 140,000);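 active means above mean plus 3 SD of all compounds, about 5% in these data, not always enough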;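 further: 0% = vehicle buffer wells and 100% = reference agonist at full effect; tested in CHO reporter cells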
Target sequence (O43603 whole entry, looked up): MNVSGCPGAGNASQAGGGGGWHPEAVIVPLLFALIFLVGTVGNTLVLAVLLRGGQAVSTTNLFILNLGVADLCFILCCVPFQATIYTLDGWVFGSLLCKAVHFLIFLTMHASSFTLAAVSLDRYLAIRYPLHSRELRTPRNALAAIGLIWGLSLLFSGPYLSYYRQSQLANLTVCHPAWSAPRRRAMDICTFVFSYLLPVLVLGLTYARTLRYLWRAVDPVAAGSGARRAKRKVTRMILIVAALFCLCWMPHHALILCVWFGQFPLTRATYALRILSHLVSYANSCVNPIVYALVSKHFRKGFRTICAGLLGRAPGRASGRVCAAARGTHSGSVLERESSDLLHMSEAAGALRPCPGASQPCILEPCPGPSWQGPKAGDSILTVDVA
INS promoter inh: TRM-6 insulin promoter activity inhibition; TRM-6 cells (human fetal islet line), insulin promoter-eGFP reporter, imaging; reporter expression induced with tamoxifen; actives 0.9% (n = 130,000); inhibition, % at 2 µM;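 active means inhibition above the mean plus 3 SD, with well images judged a real hit on visual review, cut at about 60% in these data, passing the limit was not always enough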
INS promoter inh cell count: recorded beside INS promoter inh, whose call it bears; normalized cell count, %; measured here: cell count, toxicity; reference of the scale not given here;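 cells exposed to compound for 48 h; stained nuclei by imaging scaled within each plate; lower means fewer cells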
HSV augment primary fold: further read-out of HSV augment, marked with its call; fold increase; compound at 10 µM; measured here: primary screen fold increase 10 uM; tested in PC3 cells;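 GFP signal in the first replicate; 1 = infected wells without compound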
Starred values were filed as active, the others as inactive; i = inactive; . = not tested or not shown; & = joins results of further samples.

Each structure is followed by: PKD1 kinase inh | HSV augment | HSV augment primary fold | RGS16-Gao | GALR2 agonist | INS promoter inh | INS promoter inh cell count
> O=C(NC1CCN(Cc2ccccc2)C1)c1cc(COc2ccc(F)cc2F)on1 (stereo not drawn)
→ -5 | i | 0.89 | 97 | . | . | .
> COC(=O)CSc1nc(NCc2ccccc2)nc(N(C)C)n1
→ -4 | i | 0.89 | 93 | . | 0 | 88
> COc1ccc(Cl)cc1NC(=S)N1CCN(C(=O)c2ccco2)CC1
→ -7 | i | 0.9 | 92 | -4.2 | -27 | 106
> COC(=O)C1CCN(Cc2cn(Cc3ccccc3)nc2-c2cc3ccccc3o2)CC1
→ -3 | i | 0.83 | 194 | . | . | .
> COc1cccc(C(c2sc3ncnn3c2O)N2CCN(C(=O)c3ccco3)CC2)c1 (stereo not drawn)
→ -23 | i | 0.81 | 105 | -2.6 | . | .
> CC(C)CCSc1nc2[nH]ncc2c(=O)[nH]1
→ -7 | i | 0.85 | 111 | . | 44 | 135
> CC(C)C(c1nnnn1C1CCCCC1)N1CCc2ccccc2C1 (stereo not drawn)
→ 0 | i | 0.74 | 102 | -1.7 | 7 | 100
> O=C(O)c1cc(C(=O)C2CC2)c[nH]1
→ 0 | i | 1 | 101 | . | . | .
> Cc1ccc(-c2csc3nc(C)n(N)c(=O)c23)o1
→ 1 | i | 1 | 101 | -1.8 | -5 | 94
> O=C(Nc1cc(Sc2nc3ccccc3s2)cc([N+](=O)[O-])c1)c1ccccc1F
→ -20 | i | 1.1 | 104 | -1.2 | 17 | 70
> COC(=O)/C(=C/c1ccc(OC)cc1)NC(=O)c1ccco1
→ -11 | i | 0.72 | 80 | -1.3 | -39 | 63
> CCOC(=O)c1nnn(-c2nonc2N)c1COc1cc(C)c(Cl)c(C)c1
→ -6 | i | 0.86 | . | -2.5 | -7 | 82
> Cc1nc(-c2cccnc2)sc1C(=O)Nc1ccc(C(F)(F)F)cc1
→ 0 | i | 0.61 | 99 | -3.7 | 23 | 113
> COC(=O)CCCC1=CC2=CC(=O)C(C)(OC(=O)c3cccs3)C(=O)C2=CN1c1cccc(C#N)c1 (stereo not drawn)
→ . | i | 1.1 | 98 | . | . | .
> COc1ccc(S(=O)(=O)N2CCN(CC(=O)Nc3cc(C(F)(F)F)ccc3Cl)CC2)cc1
→ 2 | i | 0.68 | 101 | -2.5 | -6 | 115
> CC(=O)NC1(C(F)(F)F)N=C2SCCN2C1=O (stereo not drawn)
→ 2 | i | 0.79 | 98 | -0.1 | -11 | 76
> N#C/C(=C(/O)c1cccs1)c1nc2ccccc2[nH]1
→ . | i | 1 | 101 | . | . | .
> CN(C)C(=S)SCC(=O)NC(=O)NC(C)(C)C
→ 5 | i | 1 | 104 | . | . | .
> O=C(NCC1CCCO1)c1cc2c(s1)CS(=O)(=O)C2 (stereo not drawn)
→ -2 | i | 1 | 181 | -2.3 | 16 | 82
> CSc1nc(SC)c2c3c(oc2n1)COC(C)(C)C3
→ -4 | . | . | 103 | 0.2 | 9 | 66
> CC1CCCCC1NC(=O)c1cncc(Br)c1 (stereo not drawn)
→ 4 | i | 0.89 | 99 | -2.7 | . | .
> Cc1ccc(/C=C/C(=O)NCCCN2CCN(CCCNC(=O)/C=C/c3ccc(C)o3)CC2)o1
→ -11 | i | 0.94 | 112 | 1.5 | 10 | 148
> CCc1ccccc1NC(=O)CSc1nc2n[nH]c(C)c2c(=N)n1-c1ccc(OC)cc1
→ -9 | i | 0.93 | 57 | -0.8 | . | .
> Cn1c(Cn2nnc3ccccc32)nnc1SCC(=O)N1c2ccccc2Sc2ccccc21
→ -1 | i | 0.84 | 102 | -0.7 | 11 | 121
> CC(=O)c1cc(-c2ccccc2)n(CC(=O)NC2CCCCC2)c1C
→ -4 | i | 0.99 | 108 | . | 9 | 52
> Cc1cccc(NC(=O)c2ccc(OCC(=O)NCc3ccccc3)cc2)c1C
→ -14 | i | 0.78 | 104 | -1.5 | . | .
> CCCOc1ccc(N2C(=O)CC(N(Cc3ccco3)C(C)=O)C2=O)cc1 (stereo not drawn)
→ -4 | i | 0.98 | 115 | . | . | .
> CCOc1cc(N2CCOCC2)c(OCC)cc1NC(C)C(=O)N1CCN(CC)CC1 (stereo not drawn)
→ 2 | i | 0.94 | 106 | . | . | .
> Cc1cnc(NC(=O)COc2ccccc2Cl)s1
→ -2 | i | 1 | 125 | -1.9 | 45 | 108
> O=C(NC1(C(F)(F)F)C(=O)Nc2c1c(=O)[nH]c(=O)n2Cc1ccccc1)c1ccc(Cl)cc1 (stereo not drawn)
→ 2 | i | 0.96 | 103 | -2.4 | 43 | 152

Next section.
Each structure is followed by: PKD1 kinase inh | HSV augment | HSV augment primary fold | RGS16-Gao | GALR2 agonist | INS promoter inh | INS promoter inh cell count
> c1ccc(Cn2c(SCc3nc4ccccc4s3)nnc2-c2ccco2)cc1
→ -4 | i | 1.1 | 97 | -0.8 | 22 | 82
> Cc1ccc([N+](=O)[O-])cc1S(=O)(=O)N1CCNCC1
→ 4 | i | 1.2 | 102 | . | -5 | 94
> Cn1c(=O)c2cc3ccccc3nc2n(C)c1=O
→ . | i | 1.1 | 101 | . | . | .
> COc1ccc(NC(=O)Nc2sc(=S)n(C)c2C)cc1
→ 3 | i | 1 | 100 | . | . | .
> O=C(O)C1CC=CCC1C(=O)Nc1ccc(F)c(F)c1 (stereo not drawn)
→ -2 | i | 0.94 | 90 | -1.0 | -53 | 103
> O=C(c1ccccc1)N1CCCCC(Cl)C1=O (stereo not drawn)
→ 1 | i | 1 | 100 | . | 36 | 150
> Cc1ccc(-n2c(C)cc3c2CCCC3=O)cc1
→ -7 | i | 1 | 101 | -1.2 | 56 | 135
> CCCNC(=O)C12CCC(C)(c3nc4cc(C)c(C)cc4nc31)C2(C)C (stereo not drawn)
→ -5 | i | 0.92 | 112 | . | -36 | 121
> CC(C)Cc1nnc(NC(=O)CCC(=O)N2CCOCC2)s1
→ -1 | i | 0.97 | 105 | -3.4 | 69 | 106
> Cc1cc(C(F)(F)F)nc(SCc2ccc(C(=O)O)o2)n1
→ -1 | i | 0.76 | 101 | -1.0 | 73* | 134*
> COc1ccc(NS(=O)(=O)c2ccc3oc(=S)[nH]c3c2)cc1
→ . | i | 1.1 | 107 | . | . | .
> COc1ccccc1NC(=O)C1=C(C)Nc2nc(-c3ccccc3)nn2C1c1ccccn1 (stereo not drawn)
→ 7 | i | 0.84 | 98 | -1.4 | . | .
> CCSc1nnc([C@H](C)NC(=O)OC(C)(C)C)o1
→ -4 | i | 0.89 | 104 | -0.9 | . | .
> O=C(c1ccc2snnc2c1)N1CCCC1
→ -1 | i | 0.97 | 103 | -0.3 | . | .
> CC(C)Cn1c(CNC(=O)c2ccccc2)nc2ccccc21
→ -6 | i | 0.87 | 24 | -1.6 | -100 | 38
> CCCn1nnc(NC(=O)/C=C/c2ccc(C(C)C)cc2)n1
→ . | i | 0.91 | 91 | . | . | .
> CCC1NC(=S)N(C2CCCCC2)C1=O (stereo not drawn)
→ 4 | i | 1.1 | 100 | -1.6 | 23 | 156
> CCOC(=O)c1cc(-c2ccc(/C=N\n3cnnc3)o2)ccc1Cl
→ 2 | i | 1 | 108 | 0.0 | 30 | 127
> CC(C)NC(=O)Cn1c(SCC(=O)N2CCc3ccccc3C2)nc2ccccc21
→ -13 | i | 0.97 | 79 | -2.6 | -14 | 79
> CN(C)CCCN(C(=O)/C=C/c1cccs1)c1nc2ccc(F)cc2s1
→ 6 | i | 0.74 | 97 | . | -56 | 81
> CC(C)OP(=O)(Nc1cccc2ccccc12)OC(C)C
→ -2 | i | 1 | 64 | -2.1 | -71 | 86
> COc1ccc(-c2nc(-c3cccs3)c(-c3cccs3)[nH]2)cc1O
→ -10 | i | 0.8 | 101 | -2.1 | . | .
> O=C(O)c1cccc(CN2C(=O)SC(Nc3ccccc3)C2=O)c1 (stereo not drawn)
→ -2 | i | 1.1 | 103 | -1.2 | 6 | 95
> Cc1nn2c(NCCN3CCOCC3)c3c(nc2c1-c1ccccc1)CCCC3
→ . | i | 0.9 | 110 | . | . | .
> CCOc1cc(CN2CCN(CCOCCO)CC2)ccc1OC
→ -8 | i | 0.88 | 103 | -0.1 | 32 | 110
> Cc1cc(NCc2ccc3c(c2)OCO3)n2nc(C)nc2n1
→ 0 | i | 1.4 | 112 | -0.2 | . | .
> Cc1ccc2c(c1)N(CC(=O)OCC(=O)NCc1ccccc1)C(=O)CO2
→ -3 | i | 1 | 111 | . | . | .
> C#CCn1cc[n+](CC(=O)N(C)C)c1
→ -6 | i | 0.9 | 107 | -0.9 | . | .
> CC(=O)c1ccc(Nc2cc(C)nc3ccc(C)cc23)cc1
→ 0 | i | 0.74 | 108 | . | . | .
> COc1cc(/C=C/c2cc(C(=O)O)c3ccccc3n2)ccc1OC(F)F
→ . | i | 0.97 | 106 | . | . | .

Later entries.
Each structure is followed by: PKD1 kinase inh | HSV augment | HSV augment primary fold | RGS16-Gao | GALR2 agonist | INS promoter inh | INS promoter inh cell count
> CC1CCN(CC(=O)Nc2cccc(C(=O)Nc3cccc(C(F)(F)F)c3)c2)CC1
→ -7 | i | 0.81 | 106 | -1.3 | -24 | 95
> O=C(CC1CCCCC1)Nc1ccccc1-c1ccccc1
→ -8 | i | 1 | 106 | 0.6 | -72 | 95
> CCN(CC)S(=O)(=O)c1ccc(NC2c3ccccc3C(=O)N2Cc2ccco2)cc1 (stereo not drawn)
→ -17 | i | 0.93 | 101 | -7.1 | . | .
> CCN(CC)CCCOC(=O)C(c1ccccc1)c1ccccc1
→ -3 | i | 0.9&0.86 | 98 | . | . | .
> CCS(=O)(=O)c1ccc2oc(SCC(=O)Nc3ccc(OC)cc3)nc2c1
→ 6 | i | 0.94 | 103 | . | . | .
> COc1ccc(CCNC(=S)N2CCC(Cc3ccccc3)CC2)cc1OC
→ 2 | i | 1.1 | 99 | . | 5 | 124
> Cc1ccc(S(=O)(=O)N/N=C/c2ccc3nccnc3c2)cc1
→ . | i | 0.94 | 96 | . | . | .
> CCOc1ccc(C(=O)N2CCCCCC2)cc1
→ -2 | i | 0.9 | 105 | -1.2 | -47 | 180
> c1c2c(cc3sc(N4CCOCC4)nc13)OCO2
→ -15 | i | 0.95 | 79 | -3.0 | . | .
> CCCOc1ccc(C(=O)Nn2c(C)nc3ccccc3c2=O)cc1
→ 12 | i | 1 | 98 | -0.8 | . | .
> CCOC(=O)CC(=O)Nc1ccc(C)cc1
→ -1 | . | . | 101 | -2.6 | -12 | 58
> O=C(CCSCc1cccc(Cl)c1)NCCc1ccccc1
→ -2 | i | 0.92 | 104 | -0.1 | -20 | 111
> COc1ccc2[nH]c(C)c(CCN3C(=O)OC(C)(C)C3(C)O)c2c1 (stereo not drawn)
→ -4 | i | 0.83 | 94 | -2.3 | . | .
> COc1ccc(N2C(=O)C3CCCN3C2c2cccc(Br)c2)cc1 (stereo not drawn)
→ -7 | i | 1.2 | 109 | -1.9 | . | .
> Cc1cccc(CN2CCC(CNC(=O)CSc3cc(=O)n(C)c4cc(Cl)ccc34)CC2)c1
→ . | i | 0.71 | 102 | . | . | .
> O=C(NCCNC(=O)c1cc(OCC(F)(F)F)ccc1OCC(F)(F)F)Nc1cccc(C(F)(F)F)c1
→ -13 | i | 0.79 | 103 | -1.8 | -42 | 42
> COc1ccc(C(=O)Nn2c(CCC(=O)O)ccc2-c2ccc(C)cc2)cc1OC
→ 1 | i | 0.87 | 114 | . | . | .
> CC[C@H](C)[C@@H](NC(=O)O[C@@H]1C(=O)c2cc(Br)ccc2O[C@H]1c1ccc2c(c1)OCO2)C(=O)OC
→ 2 | i | 1.2 | 99 | -1.6 | -70 | 108
> Cc1ccc(S(=O)(=O)N(C)CC(=O)NCc2ccncc2)cc1
→ 2 | i | 0.64 | 96 | -1.2 | -57 | 145
> Cc1cc(C)n(C(=O)c2cc3ccccc3c(=O)o2)n1
→ -1 | i | 0.98 | 100 | -1.5 | -9 | 96

Six entries from above, bar-delimited:
mol | PKD1 kinase inh | HSV augment | HSV augment primary fold | RGS16-Gao | GALR2 agonist | INS promoter inh | INS promoter inh cell count
O=C(O)C1CC=CCC1C(=O)Nc1ccc(F)c(F)c1 (stereo not drawn) | -2 | i | 0.94 | 90 | -1.0 | -53 | 103
O=C(c1ccccc1)N1CCCCC(Cl)C1=O (stereo not drawn) | 1 | i | 1 | 100 | . | 36 | 150
Cc1ccc(-n2c(C)cc3c2CCCC3=O)cc1 | -7 | i | 1 | 101 | -1.2 | 56 | 135
CCCNC(=O)C12CCC(C)(c3nc4cc(C)c(C)cc4nc31)C2(C)C (stereo not drawn) | -5 | i | 0.92 | 112 | . | -36 | 121
CC(C)Cc1nnc(NC(=O)CCC(=O)N2CCOCC2)s1 | -1 | i | 0.97 | 105 | -3.4 | 69 | 106
Cc1cc(C(F)(F)F)nc(SCc2ccc(C(=O)O)o2)n1 | -1 | i | 0.76 | 101 | -1.0 | 73* | 134*
